Screening data (PubChem BioAssay)
LANA-H2A inh: blockers of LANA interaction with H2A/H2B – biochemical, FP readout, HTS, primary screen | inhibition, % (no concentration beside the values) | Protein LANA1 (Human herpesvirus 8 type P (isolate GK18)), Q9QR71 | AID 2629, 2010 | 0.6% of 320,000 active | cell-free LANA-H2A/H2B peptide, fluorescence polarization; in the data active = inhibition mostly above about 10%, no sharp cut-off; inactive = mostly below about 6.7%;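 also: stock transfer was 7.5 nL into about 10 µL; 0% = median of vehicle wells and 100% = median of positive control wells; one replicate is shown; the record names a cut of 25% in any replicate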
Calb FLC: C. albicans growth inhibition with fluconazole, primary screen, CaCi-2 strain, Alamar Blue fluorescence; growth inhibition, % (no concentration beside the values); 0.57% of 300,000 active; C. albicans CaCi-2 (fluconazole-resistant clinical isolate) + fluconazole, 48 h; AID 1979, 2009;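 active = most replicates above 75%; inconclusive = exactly half above 75%; inactive = most below 75%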;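 also: all wells also contain fluconazole at 8 µg/ml as a sub-toxic cotreatment; 0% = median of DMSO wells and 100% = median of geldanamycin control wells; wells of about 8 µL received 7.5 nL stock; the first replicate is given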
Vif A3G: inhibitors of Vif binding to APOBEC3G peptide, primary screen, biochemical, TR-FRET, GST-Vif 1-94, biotin-A3G peptide, dose response retest (AID 1117319) | Virion infectivity factor (Human immunodeficiency virus type 1 group M subtype B (isolate … | TR-FRET GST-Vif / biotin-A3G peptide binding; higher % means a stronger effect; test concentration not given here; strong numbers were not always called active | one-dose inhibition, %; IC50 in µM for titrated hits | 0.57% of 260,000 active;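 active = above the screen mean plus three standard deviations and confirmed in dose response; inconclusive = results disagree or hit not tested in dose response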;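 also: Vif residues 1-94 fused to GST binding biotinylated APOBEC3G peptide 110-148; 0% = full assay without inhibitor and 100% = GST in place of GST-Vif; retest series ran down from 100 µM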
HNF4A DNA FP: change in binding of human HNF4A to DNA, primary screen, biochemical, fluorescence polarization, FITC-DNA | activity change, % at 10 µM | 1 h | Hepatocyte nuclear factor 4-alpha (Homo sapiens), P41235 | 0.3% of 360,000 active; in the data active = activity change above about 30%, passing the limit was not always enough;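 also: controls were the assay level and a saturating level of protein; the project sought stronger binding though the title names inhibitors; some compounds called inactive have numbers as strong as hits; positive values seem to mean higher polarization but the record does not say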
ALR inh: inhibitors of human ALR sulfhydryl oxidase, primary screen, biochemical, H2O2 detection, HRP-luminol luminescence, single point; FAD-linked sulfhydryl oxidase ALR (Homo sapiens), P55789; purified ALR, DTT oxidation; inhibition, % (test concentration not listed); 3.8% of 290,000 active; AID 485317, 2010;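 active = mean and each replicate at 75% or more; inconclusive = only one of the two met; inactive = neither met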;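 also: stock transfer was 7.5 nL into about 7.5 µL; 0% = neutral wells and 100% = wells with inactivated enzyme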
Target sequence (P55789 whole entry, looked up): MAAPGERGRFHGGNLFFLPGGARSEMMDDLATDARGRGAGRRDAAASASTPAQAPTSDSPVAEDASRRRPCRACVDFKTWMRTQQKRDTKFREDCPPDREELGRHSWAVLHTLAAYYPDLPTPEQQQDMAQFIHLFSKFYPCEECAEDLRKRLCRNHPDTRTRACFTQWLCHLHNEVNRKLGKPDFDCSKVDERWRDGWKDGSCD
Beta2AR agonist: beta2AR agonists driving receptor internalization, primary screen, cell-based, FAP fluorogen, flow cytometry | Beta-2 adrenergic receptor (Homo sapiens), P07550 | Am2.2-beta2AR cells; reference of the scale not given here | response, % (test concentration not listed) | 0.43% of 340,000 active;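 active = response above a set limit, near 3 SD of response in nonfluorescent compounds, cut at about 42% in these data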;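 also: stock transfer was 100 nL into about 11 µL; a reference agonist was the positive control; negative values mostly stem from fluorescent compounds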
Target sequence (P07550 whole entry, looked up): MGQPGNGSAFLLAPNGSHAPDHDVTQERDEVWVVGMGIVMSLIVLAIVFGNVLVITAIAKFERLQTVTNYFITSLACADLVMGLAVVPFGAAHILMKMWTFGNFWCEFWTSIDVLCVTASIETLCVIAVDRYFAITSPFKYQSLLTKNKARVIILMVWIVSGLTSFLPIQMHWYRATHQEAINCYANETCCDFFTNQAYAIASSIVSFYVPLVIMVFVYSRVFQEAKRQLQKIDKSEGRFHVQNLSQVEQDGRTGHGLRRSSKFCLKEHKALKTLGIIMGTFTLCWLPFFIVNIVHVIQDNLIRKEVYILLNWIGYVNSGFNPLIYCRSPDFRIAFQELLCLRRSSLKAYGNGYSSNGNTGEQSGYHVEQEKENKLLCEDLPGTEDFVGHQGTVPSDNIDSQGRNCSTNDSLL
RanGTP-Impb inh: inhibitors of RanGTP-importin-beta interaction, primary screen, biochemical, FRET, CFP-Ran, YFP-importin-beta, homogeneous | Ran GTPase (GTP-bound) - importin-beta complex | cell-free CFP-Ran/YFP-importin-beta FRET ratio | inhibition, % (no concentration beside the values) | 1.1% of 300,000 active;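 active = most replicates above 15%; inconclusive = exactly half above 15%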;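 also: 0% = DMSO wells and 100% = Ran loaded with GDP instead of GTP; wells of about 40 µL received 100 nL stock; the first replicate is given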
* = called active by the depositor; ? = inconclusive; / = no result given; & = joins results of further samples.

SMILES	LANA-H2A inh	Calb FLC	Vif A3G	HNF4A DNA FP	ALR inh	Beta2AR agonist	RanGTP-Impb inh
Cc1ccc(Sc2ccc(CO)cc2[N+](=O)[O-])cc1	-2.6	14	-10%	-0.7	-10	-4	1.4
CC1CCCCN1Cc1nc2c(c(=O)n(C)c(=O)n2C)n1CCc1ccccc1 (stereo not given)	-1.4	-3	-3%	-0.1	-7	-23	3.8
O=C(Nc1cccc(F)c1)C1CCCCC1	-3.4	/	/	0.7	/	-6	/
C/C(=N\NC(=O)C(=O)Nc1ccc(C)cc1)c1ccncc1	-5.3	7	-8%	-5.0	-1	1	-0.1
Cc1ccccc1C(=O)Nc1ccccc1NC(=O)c1ccccc1Br	-7.2	-4	/	-1.6	-4	3	1.6
O=C(Nc1ccc(S(=O)(=O)NCC2CCCO2)cc1)c1cnccn1 (stereo not given)	5.6	2	10%	3.7	6	1	6.2
COc1ccc(NC(=O)C(C)Sc2ccccc2)cc1 (stereo not given)	-0.3	1	-7%	1.0	-6	4	3.8
Cc1nc(C)c(Oc2cccc(C(F)(F)F)c2)c(=O)[nH]1	-4.4	-3	4%	-4.6	-5	-5	0.1
COc1ccc(-c2nonc2NC(=O)c2oc3ccc(F)cc3c2C)cc1OC	-2.0	/	-8%	0.3	-3	6	-0.4
CC1=C(C(N)=O)S(=O)(=O)c2ccccc21	1.6	12	14%	-4.7	-10	-9	-6.8
Cc1ccc(C(=O)CCC(=O)OCC(=O)NNC(=O)c2ccccc2Cl)cc1	0.9	/	-26%	-0.1	-3	2	/
CCCn1c(N)c(N(CCOC)C(=O)c2ccc(Cl)c([N+](=O)[O-])c2)c(=O)[nH]c1=O	6.7	1	10%	3.6	-6	-7	-1.9
CCC(C)(C)NC(=O)C(c1ccc(C)cc1)N(CC1CCCO1)C(=O)c1csnn1 (stereo not given)	4.6	-3	/	-1.3	0	-2	-1.4
O=C(NNC(=S)Nc1ccccc1)c1ccccc1[N+](=O)[O-]	3.4	10	22%	0.2	72	-13	-1.2
CC(C)C(=O)N(Cc1ccc2c(c1)OCO2)Cc1ccccn1	-10	8	5%	1.0	4	-12	-2.7
Cc1c(C(=O)OCC(=O)NCc2ccco2)cccc1[N+](=O)[O-]	3.1	/	13%	-8.2	12	-3	/
CCC(CC(C)(C)O)C(=O)NNC(=S)Nc1ccccc1 (stereo not given)	2.1	-23	/	0.1	54	-6	?
CC1(C)C([N+](=O)[O-])C(c2ccccc2O)NC(c2ccccc2O)C1[N+](=O)[O-] (stereo not given)	-1.8	-8	/	1.3	17	3	0.3
CCN1CCN(CC(O)COc2ccc(C)c(C)c2)CC1 (stereo not given)	-1.6	0	-5%&-1%	2.8&3.3	-19	8&-4	0.3
Cc1ccccc1NC(=O)Nc1nnc(Cc2ccc([N+](=O)[O-])cc2)s1	2.0	2	/	2.6	-6	11	-3.2
Cc1ccc(C(=O)N/C(=C/c2cccc([N+](=O)[O-])c2)C(=O)NCC2CCCO2)cc1 (stereo not given)	-2.2	23	/	0.5	-4	2	-2.8
CCN(CC)CCNC(=O)c1ccc(NC(=O)C2CC(=O)N(CCc3ccc(OC)c(OC)c3)C2)cc1 (stereo not given)	-0.9	/	-11%	6.4	0	-4	/
CC(C)Oc1ccc(C2c3c(oc4ccccc4c3=O)C(=O)N2CCCN2CCOCC2)cc1 (stereo not given)	-6.0	8	3%	5.5	5	-7	5.1
CCC(C(=O)Nc1cccc(C(=O)O)c1C)c1ccccc1 (stereo not given)	4.1	-6	/	1.8	-7	0	1.0
CNCCCOc1ccc(C)cc1Br	-1.8	-17	-4%	-0.5	-9	-3	3.5
CC(C)CC(c1nnnn1Cc1ccc(F)cc1)N1CCC(C(N)=O)CC1 (stereo not given)	5.6	5	/	-0.9	-1	2	8.3
NC(=O)C1CCN(C(=O)c2cc(Cl)c3c(c2)OCCO3)CC1	9.6	/	15%	-3.1	-2	8	/
COc1ccc(N2CCN(C(=O)c3cccc(NC(=O)c4ccco4)c3)CC2)cc1	-2.2	-7	/	-2.9	?	-3	3.4
CCOC(=O)C1=C(N2CCCCC2)c2cc3c(n2C1=O)CCCC3	-1.0	-5	2%	-2.1	1	-6	-4.1
O=C(O)/C=C/c1ccc(S(=O)(=O)Nc2ccc(OCc3ccccc3)cc2)cc1	2.4	-9	32%	1.9	0	4	-2.5
O=C(CNC(=O)c1cccs1)Nc1cccc(S(=O)(=O)N2CCOCC2)c1	/	/	5%	-2.6	/	-8	/
CCCC[n+]1ccn(C2=C([O-])c3ccccc3C(=O)/C2=N\S(=O)(=O)c2ccccc2)c1	-1.3	47	-1%	0.5	-28	-3	1.0
Cc1ccc(-n2ncc3c2ncn2c(C)nnc32)cc1C	-3.2	/	-4%	-1.7	-7	1	/
O=C(NC(=S)Nc1ccccc1O)c1cncc(Br)c1	-8.4	-1	/	9.1	-5	-79	4.2
CC(=O)c1cccc(-n2nnnc2SCC(=O)NNC(=O)C(C)C)c1	3.5	-8	7%	-1.4	-7	-6	/
CC(Sc1nnc(-c2ccco2)n1C)C(=O)N(C)C1CCCCC1 (stereo not given)	1.3	4	-5%	-2.2	2	-4	2.0
COc1ccc(-c2cnnc(N/N=C/c3ccc(O)c(OC)c3)n2)cc1	3.4	-21	/	1.8	16	-6	-0.4
CCOc1ccc2c(c1)cc(CN(C(=O)CC)C1CCCCC1)c1nnnn12	3.8	30	-4%	0.4	-33	-6	3.4
CCOC(=O)[C@@H]1[C@H]2COc3cc(OC)ccc3[C@@H]2N2C(=O)N(c3ccc(Cl)cc3)C(=O)[C@@]12C	5.3	-5	/	1.3	-2	2	6.6
CCc1n(CC(O)COC2CCCCC2)c2ccccc2[n+]1C (stereo not given)	-1.2	-14	/	0.3	-6	-3	-3.8
COc1ccc(N(C(=O)c2ccco2)S(=O)(=O)c2ccccc2)cc1	-9.5	8	-4%	2.0	-2	8	0.7
O=C(O)Cn1cc(/C=C2\SC(=O)N(c3ccccc3)C2=O)c2ccccc21	1.6	12	-8%	-3.0	3	12	24*
CC(NC(=O)COC(=O)CN1C(=O)c2ccccc2C1=O)c1ccccc1 (stereo not given)	-4.8	/	/	4.4	3	-4	/
Cc1ccc(/C=C/c2nc3ccccc3s2)s1	0.6	-4	2%	8.5	-3	7	-0.4
COc1ccc(-c2cnnn2-c2ccc(NC(=O)/C=C/c3ccc(OC)c(OC)c3)cc2)cc1	-7.5	-19	/	1.8	-6	-5	5.4
CC(C)NC(=S)NN(c1ccccc1)c1ccccc1	3.4	-25	4%	-1.1	99*	2	-1.3
C/C(N)=C(/C#N)C(=O)CSc1nnnn1-c1ccc(C)cc1	11	2	7%	0.5	-26	-2	-2.5
CC(C)(C)OC(=O)NCCCCCNC(=O)c1[nH]cnc1C(=O)Nc1ccccc1	3.3	/	/	4.3	-2	5	/

Eleven entries out of the list, arranged by SMILES length, largest number first.
SMILES	LANA-H2A inh	Calb FLC	Vif A3G	HNF4A DNA FP	ALR inh	Beta2AR agonist	RanGTP-Impb inh
CCOC(=O)[C@@H]1[C@H]2COc3cc(OC)ccc3[C@@H]2N2C(=O)N(c3ccc(Cl)cc3)C(=O)[C@@]12C	5.3	-5	/	1.3	-2	2	6.6
COc1ccc(-c2cnnn2-c2ccc(NC(=O)/C=C/c3ccc(OC)c(OC)c3)cc2)cc1	-7.5	-19	/	1.8	-6	-5	5.4
CC(C)(C)OC(=O)NCCCCCNC(=O)c1[nH]cnc1C(=O)Nc1ccccc1	3.3	/	/	4.3	-2	5	/
O=C(O)Cn1cc(/C=C2\SC(=O)N(c3ccccc3)C2=O)c2ccccc21	1.6	12	-8%	-3.0	3	12	24*
CCOc1ccc2c(c1)cc(CN(C(=O)CC)C1CCCCC1)c1nnnn12	3.8	30	-4%	0.4	-33	-6	3.4
COc1ccc(N(C(=O)c2ccco2)S(=O)(=O)c2ccccc2)cc1	-9.5	8	-4%	2.0	-2	8	0.7
CC(=O)c1cccc(-n2nnnc2SCC(=O)NNC(=O)C(C)C)c1	3.5	-8	7%	-1.4	-7	-6	/
C/C(N)=C(/C#N)C(=O)CSc1nnnn1-c1ccc(C)cc1	11	2	7%	0.5	-26	-2	-2.5
CCc1n(CC(O)COC2CCCCC2)c2ccccc2[n+]1C (stereo not given)	-1.2	-14	/	0.3	-6	-3	-3.8
CC(C)NC(=S)NN(c1ccccc1)c1ccccc1	3.4	-25	4%	-1.1	99*	2	-1.3
Cc1ccc(/C=C/c2nc3ccccc3s2)s1	0.6	-4	2%	8.5	-3	7	-0.4

Remaining list, next part.
SMILES	LANA-H2A inh	Calb FLC	Vif A3G	HNF4A DNA FP	ALR inh	Beta2AR agonist	RanGTP-Impb inh
CCOC(=O)Cn1nnnc1CN(Cc1ccc(OC)cc1)Cc1cc2cc(C)cc(C)c2[nH]c1=O	-5.5	-23	11%	-1.1	0	7	-0.9
Cc1[nH]c2ccccc2c1C(=O)COC(=O)c1c(-c2ccccc2)noc1C	12	/	-4%	-2.1	-5	-17	/
CCOC(=O)c1c(-c2ccccc2)oc2ccc(O)c(CN3CCOCC3)c12	1.7	4	-2%	-2.7	0	-3	0.0
CCC(=O)N(Cc1cc2cc(OC)ccc2[nH]c1=O)c1cccc(C)c1	-0.1	2	-9%	-2.4	19	-8	3.9
COc1ccc(OC(=O)NCCc2ccccc2)cc1	2.3	-27	-1%	5.2	0	-3	?
COc1ccccc1-n1cc(CN2CCN(CC(C)C)C(CCO)C2)cn1 (stereo not given)	1.3	-26	/	-1.1	-6	8	1.7
CCc1c(C)c2cc(Cl)c(O)c(CN3CCCCC3)c2oc1=O	2.2	10	10%	-2.3	98*	-13	22*
[O-][N+]1=C2CCC/C(=N\O)C2=NC12CCCCC2	-2.0	0	/	0.3	-6	1	-0.3
Nc1c(C(=O)OCC2CCCO2)c2nc3ccccc3nc2n1-c1ccc2c(c1)OCCO2 (stereo not given)	0.4	8	23%	/	-44	/	3.4
CCCCN(CC)C(=O)CSc1nc2n[nH]c(C)c2c(=N)n1-c1cccc(C)c1	0.6	-3	6%	1.5	4	-7	6.6
COc1cccc(NC(=O)Nc2cccnc2)c1	-0.6	-4	-1%	-1.6	-6	0	1.8
CCS(=O)(=O)Nc1cc(-c2nc3cccnc3s2)ccc1C	-0.7	3	9%	9.8	44	0	2.4
Cc1cccc(C)c1NC(=O)CSCc1cccc(CSCC(=O)Nc2c(C)cccc2C)n1	-1.0	1	-2%	3.4	9	20	-2.9
CCOC(=O)N1CCN(c2nc(-c3cccs3)nc3ccccc23)CC1	-7.0	19	/	2.6	/	-10	2.8
COc1ccc(C(=O)N=c2sccn2C)cc1	4.3	-5	/	-2.3	25	-11	-0.4
